# FGF22 binding = binders of recombinant human FGF22 by thermal shift | SYPRO orange fluorescence; percent of sucrose octasulfate shift, DMSO zero | AID 651658 | calls only at 9.99 µM | 1.5% of 340,000 active | Q9HCT0;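 active means melting point raised past a set limit in the mean and every replicate; inconclusive means no clear call; three in four hits are not shown here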
# Target sequence (Q9HCT0 whole entry, looked up): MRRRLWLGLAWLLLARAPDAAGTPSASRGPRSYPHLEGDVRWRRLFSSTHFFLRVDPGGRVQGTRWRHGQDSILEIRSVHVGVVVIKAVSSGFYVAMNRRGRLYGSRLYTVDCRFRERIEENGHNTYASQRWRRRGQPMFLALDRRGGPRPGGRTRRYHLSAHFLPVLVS
# MLL AF4-AF9 inh = blocks AF4 peptide binding to human AF9. P42568. AlphaScreen, biotin-AF4 peptide binding to FLAG-AF9. inhibition, % at 10 µM. 0.47% of 350,000 active. AID 651704;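 active means every replicate reaching a set inhibition limit, whatever the replicate mean, cut at about 25% in these data; inconclusive means mean inhibition reaches that limit but some replicates miss it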;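 further: 0% = plate neutral control median and 100% = total signal loss; the record names both 10 and 1 µM as test concentration; the first replicate is given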
# Target sequence (P42568 whole entry, looked up): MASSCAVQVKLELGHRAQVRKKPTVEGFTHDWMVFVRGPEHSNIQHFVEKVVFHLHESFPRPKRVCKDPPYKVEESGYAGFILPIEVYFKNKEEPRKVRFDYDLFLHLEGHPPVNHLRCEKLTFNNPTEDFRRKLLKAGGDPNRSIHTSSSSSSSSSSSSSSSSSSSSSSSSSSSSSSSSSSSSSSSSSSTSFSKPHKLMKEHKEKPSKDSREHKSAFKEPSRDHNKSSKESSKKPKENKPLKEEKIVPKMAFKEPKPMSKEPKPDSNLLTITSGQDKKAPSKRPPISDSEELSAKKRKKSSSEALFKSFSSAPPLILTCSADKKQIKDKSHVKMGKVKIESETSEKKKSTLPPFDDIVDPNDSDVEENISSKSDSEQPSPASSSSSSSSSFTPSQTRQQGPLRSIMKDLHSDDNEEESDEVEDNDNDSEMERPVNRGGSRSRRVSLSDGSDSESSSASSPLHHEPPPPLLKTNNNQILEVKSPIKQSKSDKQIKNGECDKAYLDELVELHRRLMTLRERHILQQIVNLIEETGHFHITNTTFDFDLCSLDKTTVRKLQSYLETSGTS
# rRNA inh HTS = inhibits bacterial ribosomal RNA function over humanized ribosomes; E. coli WT GFP vs humanized-ribosome RFP mutants, fluorescence, 24 h; stronger effect = lower value; DMSO median 0, no signal -100; 1.6% of 350,000 active; GFP signal change (wild-type ribosome), % (concentration not given with the values);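 active means significant combined selectivity score with lowered wild-type GFP, culture density cut under 30%, mutant RFP and density less affected; inactive means any of these conditions unmet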; further: one replicate is shown; some compounds called inactive have numbers as strong as hits
# rRNA inh HTS OD600 = second read-out of rRNA inh HTS, no call of its own (marks repeat the call); OD600 change, %; measured here: OD600 growth;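 optical density of the mix in the first replicate; 0 = DMSO median and -100 = no signal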
# rRNA inh HTS RFP = further read-out of rRNA inh HTS, marked with its call; RFP signal change, %; measured here: RFP humanized mutant strains;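 first replicate; 0 = DMSO median and -100 = no signal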
# * = called active by the depositor; i = inactive; ? = inconclusive; . = no result given; + = active, no number. Only part of the results is shown; rates above refer to the full screens.
No.	FGF22 binding	MLL AF4-AF9 inh	rRNA inh HTS	rRNA inh HTS OD600	rRNA inh HTS RFP	SMILES
1	i	-1.5	5	18	0.9	COc1ccc(NC(=O)N(C)C[C@@H]2Oc3c(NC(=O)c4ccc(-c5nccs5)cc4)cccc3C(=O)N([C@@H](C)CO)C[C@H]2C)cc1
2	i	-0.6	7	15	-1.5	O=C(O)c1cnc2ccc(Cl)cc2n1
3	i	0.2	4	-2	-0.7	CO[C@H]1CN(C)C(=O)c2ccc(NS(C)(=O)=O)cc2OC[C@@H](C)N(C(=O)C2CCCC2)C[C@@H]1C
4	i	1.1	3	0	-2.9	C[C@@H]1CN([C@@H](C)CO)C(=O)c2cccc(NC(=O)Nc3ccc(F)cc3)c2O[C@H]1CN(C)S(C)(=O)=O
5	i	8.2	-2	-6	-2.0	C[C@@H]1CCCCO[C@@H](CN(C)C(=O)Nc2ccc(C(F)(F)F)cc2)[C@H](C)CN([C@@H](C)CO)C(=O)c2cc(N(C)C)ccc2O1
6	i	0.1	3	-4	-0.9	O=C(NC[C@@H]1[C@@H](c2ccccc2)[C@@H](CO)N1CC1CCCC1)c1ccccc1
7	i	-0.1	-2	0	1.4	O=C(C[C@@H]1C=C[C@H](NC(=O)C2CCOCC2)[C@@H](CO)O1)Nc1ccc(-c2ccccc2)cc1
8	i	-0.7	10	9	-1.6	O=C(NCc1ccccc1)C(c1cc2ccccc2o1)n1c(=O)c(-c2ccccc2)nc2ccccc21 (configuration not stated)
9	i	-2.9	-3	6	-2.7	Cc1ccc(-c2cnc3c(c2)C(=O)N([C@@H](C)CO)C[C@H](C)[C@H](CN(C)C(=O)c2cccc(F)c2)O3)cc1
10	i	-0.2	2	3	-1.3	CCC(=O)N1C[C@@H](C)[C@H](OC)CN(C)C(=O)c2ccc(NC(=O)c3cnccn3)cc2OC[C@@H]1C
11	i	-1.2	2	2	-0.4	Cc1noc(C)c1S(=O)(=O)N(C)C[C@@H]1Oc2ccc(NC(=O)CCCCCC(=O)Nc3ccccc3N)cc2CC(=O)N([C@@H](C)CO)C[C@H]1C
12	i	-1.0	-2	5	-1.5	COc1ccc(OCC(=O)N2CCN(S(=O)(=O)c3ccc4c(c3)OCCO4)CC2)cc1
13	i	-3.4	19	19	0.8	Nc1nc(Cl)nc2c1ncn2C1OCC(O)C(O)C1O (configuration not stated)
14	i	-6.7	-13	-11	0.6	Cc1cc(=O)[nH]c(NN=Cc2c(Cl)cccc2Cl)n1
15	i	-1.2	-6	-28	-4.3	COc1cccc(-c2ccc([C@H]3[C@@H](C#N)N(C(=O)c4ccccn4)[C@H]3CO)cc2)c1

# Reprinted from the part before: 3 entries, then new ones.
No.	FGF22 binding	MLL AF4-AF9 inh	rRNA inh HTS	rRNA inh HTS OD600	rRNA inh HTS RFP	SMILES
13	i	-3.4	19	19	0.8	Nc1nc(Cl)nc2c1ncn2C1OCC(O)C(O)C1O (configuration not stated)
14	i	-6.7	-13	-11	0.6	Cc1cc(=O)[nH]c(NN=Cc2c(Cl)cccc2Cl)n1
15	i	-1.2	-6	-28	-4.3	COc1cccc(-c2ccc([C@H]3[C@@H](C#N)N(C(=O)c4ccccn4)[C@H]3CO)cc2)c1
16	i	-0.8	0	-2	3.0	COc1ccc(NC(=O)Nc2ccc3c(c2)[C@H]2C[C@H](CC(=O)O)O[C@@H](CO)[C@H]2O3)cc1
17	i	-1.0	-4	1	5.5	COc1ccccc1C(=O)C(=O)c1ccccc1OC
18	i	-1.8	3	3	-0.7	C[C@@H]1CCCCO[C@@H](CN(C)C(=O)Nc2ccccc2)[C@H](C)CN([C@@H](C)CO)C(=O)c2cc(NS(=O)(=O)c3ccc(Cl)cc3)ccc2O1
19	i	3.7	0	-6	0.8	COc1ccc(S(=O)(=O)Nc2ccc3c(c2)C(=O)N([C@H](C)CO)C[C@@H](C)[C@H](CN(C)S(=O)(=O)c2c(C)noc2C)OCCCC[C@@H](C)O3)cc1
20	i	-0.2	5	2	-0.1	C[C@@H]1CN([C@H](C)CO)C(=O)c2cc(NC(=O)Nc3cccc4ccccc34)ccc2O[C@@H]1CN(C)S(=O)(=O)c1ccc(F)cc1
21	i	-2.2	3	6	4.3	CN1c2ccc(-c3ccc(F)cc3)cc2[C@H]2[C@H](CCN2C(=O)Cc2ccccn2)[C@@H]1CO
22	i	-0.7	-5	5	-3.1	C[C@@H]1CCCCO[C@@H](CN(C)C(=O)Nc2ccc3c(c2)OCO3)[C@H](C)CN([C@H](C)CO)C(=O)c2cc(NC(=O)c3ccccc3)ccc2O1
23	i	-0.8	20	20	1.9	CCc1nc2ccc(C(=O)N(C)Cc3ccccc3)cn2c1N(CC)CCN(C)C
24	i	1.5	0	6	1.8	Cc1cc(C)c2c(CN3CCN(c4ccccc4F)CC3)cc(=O)oc2c1
25	i	1.9	-1	-2	4.1	C[C@@H]1CN([C@@H](C)CO)C(=O)c2cc(NC(=O)Nc3cccc4ccccc34)ccc2O[C@@H](C)CCCCO[C@H]1CN(C)Cc1ccncc1
26	i	-0.6	2	7	0.3	C[C@H]1CN([C@@H](C)CO)C(=O)Cc2cc(NC(=O)Cn3cnnn3)ccc2O[C@H]1CN(C)C
27	i	0.5	-3	-2	4.4	CCCC(=O)Nc1ccc2c(c1)C(=O)N(C)[C@H]1CC[C@@H](CC(=O)NCC3CCCCC3)O[C@H]1CO2
28	i	-0.6	0	5	1.8	C[C@@H]1CN([C@@H](C)CO)C(=O)Cc2cc(NC(=O)Nc3cccc4ccccc34)ccc2O[C@H]1CN(C)Cc1ccc(Oc2ccccc2)cc1
29	i	-0.6	-1	4	0.8	O=C(C[C@H]1C[C@H]2c3cc(NS(=O)(=O)c4ccc(F)cc4)ccc3O[C@H]2[C@@H](CO)O1)NC1CCCCC1
30	i	-1.0	-22	-65	3.9	N#C[C@@H]1[C@@H](c2ccccc2C2=CCCCC2)[C@@H](CO)N1C(=O)NC1CCCC1
31	i	-0.3	2	1	5.2	Cn1cc(Cc2ccc(C(=O)N3CCCCC3)cn2)c2ccccc21
32	i	-5.3	0	-1	-0.3	C[C@H](CO)N1C[C@H](C)[C@H](CN(C)Cc2ccccc2)Oc2ncc(-c3ccccc3F)cc2C1=O
33	i	0.0	-21	-43	7.0	Cc1noc(C)c1NC(=O)Nc1ccc2c(c1)C(=O)N([C@@H](C)CO)C[C@H](C)[C@@H](CN(C)Cc1ccc(Cl)c(Cl)c1)OCCCC[C@H](C)O2
34	i	0.1	-6	-4	2.0	Cc1ccc(S(=O)(=O)N[C@@H]2CC[C@H](CC(=O)NCc3ccc(Cl)c(Cl)c3)O[C@H]2CO)cc1
35	.	-2.5	1	12	3.2	CON(C)C(=O)C(C)(C)CC#CCN(CC#Cc1ccccc1)S(=O)(=O)c1ccc(C)cc1
36	i	1.3	-1	-2	3.5	CO[C@H]1CN(C)C(=O)c2ccc(NC(=O)Nc3ccc(Cl)cc3)cc2OC[C@H](C)N(C)C[C@@H]1C
37	i	6.6	-2	-1	-2.7	C[C@@H]1CCCCO[C@H](CN(C)C(=O)Nc2ccc3c(c2)OCO3)[C@H](C)CN([C@@H](C)CO)C(=O)c2cc(NS(=O)(=O)c3ccccc3)ccc2O1
38	i	1.5	-4	-5	-1.7	CC(C)C#Cc1cnc2c(c1)C(=O)N([C@H](C)CO)C[C@@H](C)[C@H](CN(C)C(=O)Nc1cc(F)ccc1F)O2
39	i	11	-32	-54	5.8	C[C@H](CO)N1C[C@H](C)[C@@H](CN(C)CC2CCCCC2)Oc2ccc(NS(=O)(=O)c3ccc(Cl)cc3)cc2CC1=O
40	i	-2.2	-7	-14	-3.5	COCC(=O)N(C)C[C@@H]1Oc2cc(-c3cccc(F)c3)ccc2S(=O)(=O)N([C@@H](C)CO)C[C@H]1C
41	i	-0.8	-1	10	-3.9	COc1ccccc1C#Cc1cnc2c(c1)C(=O)N([C@@H](C)CO)C[C@H](C)[C@@H](CN(C)C(C)=O)O2
42	i	2.2	-1	1	0.5	CCCC(=O)Nc1ccc2c(c1)C(=O)N(C)C[C@@H](OC)[C@@H](C)CN(C(=O)C1CCCC1)[C@@H](C)CO2
43	i	-1.7	3	2	-0.4	CCOc1ccccc1NC(=O)c1cc2ccccc2o1
44	i	0.6	2	-2	-2.2	CO[C@@H]1CN(C)C(=O)c2cc(NS(C)(=O)=O)ccc2OC[C@H](C)N(C)C[C@@H]1C
45	i	0.2	21	6	5.7	CCOC(=O)[C@]12CCC=C1N(Cc1ccc(Cl)cc1Cl)C(=O)[C@H](CC(=O)NCCc1ccccc1OC)C2

# Brought forward from above: three compounds, then new ones.
No.	FGF22 binding	MLL AF4-AF9 inh	rRNA inh HTS	rRNA inh HTS OD600	rRNA inh HTS RFP	SMILES
43	i	-1.7	3	2	-0.4	CCOc1ccccc1NC(=O)c1cc2ccccc2o1
44	i	0.6	2	-2	-2.2	CO[C@@H]1CN(C)C(=O)c2cc(NS(C)(=O)=O)ccc2OC[C@H](C)N(C)C[C@@H]1C
45	i	0.2	21	6	5.7	CCOC(=O)[C@]12CCC=C1N(Cc1ccc(Cl)cc1Cl)C(=O)[C@H](CC(=O)NCCc1ccccc1OC)C2
46	i	-3.3	5	7	0.5	CCC(=O)N1[C@@H]2c3ccc(C4=CCCC4)c(=O)n3C[C@@H]2[C@@H](CO)[C@@H]1C(=O)Nc1ccccc1
47	i	1.1	-12	-22	6.0	CN(C(=O)C=Cc1ccccc1)c1ccccc1
48	i	-0.8	0	-7	0.5	C[C@@H]1CCCCO[C@@H](CN(C)C(=O)Nc2ccc(C(F)(F)F)cc2)[C@@H](C)CN([C@@H](C)CO)C(=O)c2cc(N(C)C)ccc2O1
49	i	0.2	2	7	-3.8	O=C1OC(O)c2cccc3cccc1c23 (configuration not stated)
50	i	0.1	-6	11	-2.8	C[C@@H]1CCCCO[C@H](CN(C)Cc2ccc(Cl)c(Cl)c2)[C@@H](C)CN([C@H](C)CO)C(=O)c2cc(NC(=O)Nc3ccc(F)cc3)ccc2O1
51	i	-0.2	7	4	1.9	CC=Cc1ccc2n(c1=O)C[C@H]1[C@H](CO)[C@@H](C(=O)NCCC)[C@@H]2N1Cc1nccs1 (mixture of isomers)
52	i	9.3	3	4	5.5	O=C(C1CC1)N1CCCCN2[C@H](CO)[C@@H](c3ccc(-c4cccc(F)c4)cc3)[C@H]2C1
53	i	10	7	10	-2.5	CCCN(C)C[C@@H]1Oc2ncc(C#Cc3ccc(F)cc3)cc2C(=O)N([C@H](C)CO)C[C@@H]1C
54	i	-2.6	-7	-8	1.8	CCC(=O)N(C)C[C@@H]1Oc2cc(-c3ccc(C#N)cc3)ccc2S(=O)(=O)N([C@@H](C)CO)C[C@@H]1C
55	i	9.3	1	-1	8.9	C[C@H](CO)N1C[C@H](C)[C@H](CN(C)C(=O)Nc2ccc(F)cc2)Oc2ncc(/C=C/c3ccccc3)cc2C1=O
56	i	4.5	-53	-77	-16	COc1ccccc1CCn1cnc(-c2cccc(F)c2)c1CC(C)C
57	i	2.9	-7	-16	4.0	C[C@H](CO)N1C[C@H](C)[C@H](CN(C)C(=O)Nc2cccc3ccccc23)Oc2ncc(-c3ccccc3)cc2C1=O
58	i	-0.5	0	-6	0.2	CCOC(=O)c1ccc(S(=O)(=O)N2CCC(C(=O)N3CCN(c4ccccc4OC)CC3)CC2)cc1
59	+	1.0	-4	-9	2.4	COc1cccc(NC(=O)N(C)C[C@H]2Oc3cc(-c4ccccc4F)ccc3S(=O)(=O)N([C@@H](C)CO)C[C@H]2C)c1
60	i	2.2	-2	-3	0.6	CO[C@H]1CN(C)C(=O)c2ccc(NC(=O)Nc3ccccc3Cl)cc2OC[C@H](C)NC[C@H]1C
61	i	6.4	-6	-3	-1.6	C[C@H](CO)N1C[C@H](C)[C@@H](CN(C)C(=O)NC2CCCC2)Oc2cc(/C=C/c3ccccc3)ccc2S1(=O)=O
62	i	-2.3	9	4	-1.0	CCOC(=O)[C@]12CCC=C1N(CCC1=CCCCC1)C(=O)[C@H](CC(=O)N1CCCCC1)C2
63	i	1.4	-19	-33	-0.3	c1ccc(C[C@H]2CN=C(Nc3ccccc3)N2CC2CCCC2)cc1
64	i	?	10	2	2.2	CON(C)C(=O)/C=C/CCCCNC(=O)OC(C)(C)C
65	i	-2.2	1	2	0.6	CC(=O)Nc1ccc(NC(=O)COC(=O)c2ccc(Cl)nc2)cc1
66	i	0.4	4	1	1.6	C[C@@H](NC(=O)C[C@@H]1C[C@H]2c3cc(N(C)C)ccc3O[C@H]2[C@@H](CO)O1)c1ccccc1
67	i	15	-5	-6	1.3	COc1ccc(S(=O)(=O)Nc2ccc3c(c2)[C@H]2C[C@@H](CC(=O)NCC4CC4)O[C@H](CO)[C@H]2O3)cc1

# Quoted at random: three entries already listed
No.	FGF22 binding	MLL AF4-AF9 inh	rRNA inh HTS	rRNA inh HTS OD600	rRNA inh HTS RFP	SMILES
67	i	15	-5	-6	1.3	COc1ccc(S(=O)(=O)Nc2ccc3c(c2)[C@H]2C[C@@H](CC(=O)NCC4CC4)O[C@H](CO)[C@H]2O3)cc1
61	i	6.4	-6	-3	-1.6	C[C@H](CO)N1C[C@H](C)[C@@H](CN(C)C(=O)NC2CCCC2)Oc2cc(/C=C/c3ccccc3)ccc2S1(=O)=O
63	i	1.4	-19	-33	-0.3	c1ccc(C[C@H]2CN=C(Nc3ccccc3)N2CC2CCCC2)cc1
